Screens deposited in PubChem by National Center for Advancing Translational Sciences (NCATS).
SARS PLpro yeast – qHTS of Yeast-based Assay for SARS-CoV PLP; AID 485353, 2010; 330,000 tested, 0.19% active; S. cerevisiae expressing SARS-CoV PLpro, growth rescue; control for the full effect not named in the record; Potency, µM (highest dose often 32.9 µM), inactives show top-dose activity, positive = growth rescue; active means well fitted rising curve with a large enough effect; inconclusive means small, poorly fitted or top-dose-only effect; inactive means no such curve, though single readings can be large or run the other way; also: 0% is about no effect; nearly all actives have a fitted effect of over 55% in size; growth read by luminescence after 48 h
StopGo reporter – High Throughput Screening for Foot and Mouth Disease Virus Antivirals | human cells with a luciferase reporter of 2A StopGo recoding; control for the full effect not named in the record | Potency, µM (top dose mostly 57.9 µM), for inactives: top-dose signal change, negative = less light | 410,000 tested, 1.2% active; active = well fitted falling curve with a large enough effect; inconclusive = small, poorly fitted or top-dose-only effect; inactive = no such curve, though single readings can be large or run the other way; tested in HEK293T cells; also: % is scaled to controls: 0 for no effect and ±100 for the full control effect; nearly all actives have a fitted effect of over 45% in size; luciferase light after 4 h
NS1 inh – qHTS Assay for Inhibitors of Influenza NS1 Protein Function; Potency, µM (doses to about 46.1 µM), inactives show top-dose activity, positive = more growth; S. cerevisiae slowed by influenza A NS1, growth recovery by OD600; 270,000 tested, 0.4% active; AID 2326, 2010; active means well fitted rising curve with a large enough effect; inconclusive means small, poorly fitted or top-dose-only effect; inactive means no such curve, though single readings can be large or run the other way; also: nearly all actives have a fitted effect of over 50% in size
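Growth recovery, yeast-based: influenza A NS1 expressed in S. cerevisiae causes slow growth, and suppressors are detected by OD600. The parent strain without NS1 is used as positive control.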
RE007 growth inh – qHTS Assay for Inhibitors of the HIV-1 protein Vpr | S. pombe RE007 Vpr strain, BacTiter-Glo ATP luminescence, 24 h; control for the full effect not named in the record | Potency, µM (series often up to 92.2 µM), for inactives: top-dose activity change, negative = less growth | 360,000 tested, 0.21% active; active = well fitted falling curve with a large enough effect; inconclusive = small, poorly fitted or top-dose-only effect; inactive = no such curve, though single readings can be large or run the other way;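 also: % is scaled to controls: 0 for no effect and ±100 for the full control effect; nearly all actives have a fitted effect of over 50% in size; the assay follows cell death caused by Vpr and the record does not say whether a fall means rescue or toxicity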
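Fission yeast strain RE007, carrying one chromosomally integrated HIV-1 vpr copy, was seeded at OD 0.01 in PMG+AL medium with 23 nL pinned compound. After 24 h at 30 °C and 99% humidity, viability was read by BacTiter-Glo luminescence.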
LASV entry inh – qHTS for Inhibitors of binding or entry into cells for Lassa Virus; Potency, µM (series often up to 37.9 µM), without a hit: at the highest dose activity change, negative = inhibition, most hits filed as inhibitors; Lassa virus pseudotype entry inhibition, cell reporter; control for the full effect not named in the record; 300,000 tested, 1.2% active; AID 540256, 2011; active means well fitted inhibition curve with a large enough effect; inconclusive means small, poorly fitted or top-dose-only effect, or effect the other way; inactive means flat fitted curve, though single readings scatter; tested in HEK293 cells; also: % is scaled to controls: 0 for no effect and ±100 for the full control effect; nearly all actives have a fitted effect of over 50% in size; luciferase read-out
Cruzain Triton – qHTS Assay for Promiscuous and Specific Inhibitors of Cruzain (with detergent); purified cruzain, Z-FR-AMC fluorescence, 0.01% Triton; Potency, µM, inactives show max response, negative = inhibition, usual class: inhibitors; 200,000 tested, 0.43% active; AID 1478, 2009; Cruzipain (Trypanosoma cruzi), P25779;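 also: plate controls were neutral wells for no effect and buffer without enzyme for full effect; nearly all actives have a fitted effect of over 40% in size; top concentration of the series not given in the record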
Target sequence (P25779 123-467 limits assumed): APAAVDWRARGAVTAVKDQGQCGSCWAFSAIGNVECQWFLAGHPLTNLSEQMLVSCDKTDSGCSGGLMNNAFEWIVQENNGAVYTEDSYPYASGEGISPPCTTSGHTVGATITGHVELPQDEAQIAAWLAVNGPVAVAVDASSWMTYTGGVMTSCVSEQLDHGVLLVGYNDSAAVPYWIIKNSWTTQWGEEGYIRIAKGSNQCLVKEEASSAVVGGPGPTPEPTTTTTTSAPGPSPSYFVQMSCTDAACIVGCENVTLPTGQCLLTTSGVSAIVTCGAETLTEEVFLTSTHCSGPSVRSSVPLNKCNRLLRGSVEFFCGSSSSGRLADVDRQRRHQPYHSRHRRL
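Detergent-containing run (0.01% Triton X-100) in acetate buffer pH 5.5 with 5 mM DTT: enzyme at 1.5 nM final, 15 min compound preincubation at room temperature, then 2 uM Z-FR-AMC substrate. Activity taken as 60 s fluorescence increase at 360/450 nm.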
Cruzain inh noDet – qHTS Assay for Promiscuous and Specific Inhibitors of Cruzain (without detergent) | purified cruzain, Z-FR-AMC fluorescence, no detergent | Potency, µM, for inactives: max response, negative = inhibition, hits mostly inhibitors | 200,000 tested, 2.3% active | AID 1476, 2009;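 also: plate controls were enzyme without inhibitor for no effect and buffer without enzyme for full effect; nearly all actives have a fitted effect of over 40% in size; top concentration of the series not given in the record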
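Detergent-free condition (0.00005% Triton X-100) in acetate buffer pH 5.5 with DTT. 1.5 nM enzyme and compound were pre-mixed 15 min, then 2 uM Z-FR-AMC substrate added; reaction progress from fluorescence change between first and third reads (60 s).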
MARV entry inh – qHTS for inhibitors of binding or entry into cells for Marburg Virus | Marburg virus pseudotyped entry inhibition, cell reporter; control for the full effect not named in the record; about a third of the inactives were read at about 46 µM | 300,000 tested, 1.8% active | AID 540276, 2011 | Potency, µM (titrated, usually from 37.8 µM), for inactives: at the highest dose activity change, negative = inhibition, usual class: inhibitors; active = well fitted inhibition curve with a large enough effect; inconclusive = small, poorly fitted or top-dose-only effect, or effect the other way; inactive = flat fitted curve, though single readings scatter; tested in HEK293 cells; about a fifth of its hits are not listed in these tables; also: % is scaled to controls: 0 for no effect and ±100 for the full control effect; luciferase read-out
* = called active by the depositor; ? = inconclusive; nt = not tested or not shown; & = joins results of further samples; [ ] = another dose, or the depositor's remark. Unless noted, calls follow the shape of the dose curve; as a rule, active = well fitted curve in the direction sought with a large enough effect; inconclusive = small, poorly fitted or top-dose-only effect, or another doubt; inactive = no such curve, though single readings can be large; an effect the other way counts as inactive or inconclusive. Potency is read from the fitted curve at half-maximal effect.

SMILES | SARS PLpro yeast | StopGo reporter | NS1 inh | RE007 growth inh | LASV entry inh | Cruzain Triton | Cruzain inh noDet | MARV entry inh
COC(=O)c1cc(S(=O)(=O)NCC2CCN(Cc3ccc(C)cc3)CC2)c[nH]1 | 3% | -1%&-2% | -12% | 5% | 19%[46.1 µM] | 3.3% | 2% | nt
Fc1ccccc1OCCCN1CCOCC1 | nt | 8% | 2% | 0% | -3% | 1.8% | -4% | 1%
Cc1sc(NC(=O)c2ccco2)c(C(=O)c2ccc(Cl)cc2)c1C | 4% | -2% | 3% | 8% | -3% | -11% | ? | -8%
C=CCn1c(SCC(=O)NC(=O)NCCC)nnc1C1CCCCC1 | 10% | -22% | 4% | 32% | 2% | 3.0% | 8% | -14%[46.1 µM]
CCOC(=O)c1c(NC(=O)C2C3C=CC(C3)C2C(=O)O)sc2c1CC(C)(C)OC2 (stereo not drawn) | 1% | -23% | 7% | 11% | -10% | nt | nt | 19%[46.1 µM]
CN(c1ccccc1)S(=O)(=O)c1cccc(NC(=O)CN2CCCc3ccccc32)c1 | 1% | -8% | -44% | -2% | ? | nt | nt | 8.9µM*
COCCSc1ccccc1C(=O)Nc1nnc(COC)s1 | 1% | 22% | -8% | -7% | 19% | 1.8% | 1% | 12%
COc1ccc(N2CCN(C3=NS(=O)(=O)C(c4cccc(Br)c4)=C3C)CC2)cc1 | nt | 20% | nt | nt | -8%[46.1 µM] | -2.9% | -1% | -3%[46.1 µM]
COc1cc(CNc2ccc3[nH]c(=O)[nH]c3c2)ccc1OCc1ccc(F)cc1Cl | 1% | 1%&-14% | 3% | -12% | ? | -1.8% | -8% | 16%
CCN(CC)S(=O)(=O)c1nnc(NC(=O)COc2ccccc2F)s1 | nt | -13% | nt | nt | 4%[46.1 µM] | -3.4% | 11% | nt
COc1ccc(-n2c(CCC(=O)O)ccc2-c2ccc(F)cc2)c(OC)c1 | -1% | -5% | 3% | 8% | 11%[46.1 µM] | nt | nt | 1%[46.1 µM]
O=P1(NC2CCCC2)OCC2(CO1)COP(=O)(NC1CCCC1)OC2 (stereo not drawn) | nt | 0% | nt | -15% | 14% | nt | nt | 7%
CC(C)(C)OC(=O)[C@H](Cc1ccccc1)NC(=O)c1[nH]cnc1C(=O)Nc1ccc(Cl)cc1 | 2% | ? | ? | 7% | nt | nt | nt | nt
Cc1ccc(N(Cc2ccccc2)C(=O)c2ccc(S(=O)(=O)N3CCOCC3)cc2)cc1 | 2% | 55%[activator] | nt | 1% | -17% | nt | nt | -5%
O=C(Nc1ccc(F)cc1)C1CC(=O)n2c(nc3ccccc32)N1 (stereo not drawn) | -1% | -5% | 27% | nt | 2% | -5.0% | ? | ?
Cn1c(SCC(=O)NNC(=O)Nc2ccc(Cl)cc2)nnc1-c1ccccc1 | -5% | -22% | 1% | -1% | -14%[46.1 µM] | nt | nt | 4%[46.1 µM]
Cc1ncoc1C(=O)NC1CCCc2c1cnn2-c1ccc(C(C)(C)C)cc1 (stereo not drawn) | -6% | ? | -61% | -19% | ? | nt | nt | ?
COCCN(C(=O)c1cccc(N2C(=O)CCC2=O)c1)c1nc(-c2ccc([N+](=O)[O-])cc2)cs1 | 0% | ? | nt | ? | ? | nt | nt | -16%
O=C(C1CCN(S(=O)(=O)c2ccc(Cl)cc2)CC1)N1CCCCCCC1 | nt | ? | 8% | 0% | ? | nt | nt | -12%
O=C(NCC1(N2CCOCC2)CCCCC1)c1cccc(S(=O)(=O)N2CCc3ccccc3C2)c1 | 0% | -18% | -3% | -20% | ? | nt | nt | ?
c1ccc(CCCNc2ncccn2)cc1 | -17% | 23% | 3% | -16% | 8% | -4.5% | -12% | 4%
Cc1ccc(-c2onc(C)c2C)cc1S(=O)(=O)N1CCC(C)CC1 | nt | ? | nt | nt | -2%[46.1 µM] | -5.8% | 18% | nt
COc1cccc(C2CC(c3cccs3)=NN2C(=O)c2ccco2)c1O (stereo not drawn) | -5% | -17% | -16% | -5% | -22% | nt | nt | 22%[46.1 µM]
COc1ccc(CSc2nnc3[nH]c(=O)cc(N)n23)cc1 | -6% | 25% | nt | -6% | 4% | nt | nt | 7%[46.1 µM]
O=C(N(Cc1ccccc1)c1ccccn1)C12CC3CC(CC(C3)C1)C2 | -5% | -13% | -48% | 8% | -4% | -2.9% | -3% | -19%
Cc1nc(S(=O)(=O)c2ccc(Br)cc2)nc2c1CCC2 | 0% | 15% | 7% | 17% | 6% | nt | nt | 5%[46.1 µM]
C=CC(=O)NC(NC(=O)C=C)c1ccc(Br)cc1 | 3% | -15% | -1% | 1% | ? | 6.3% | 16% | -8%
CCc1cccc(-n2nnc(-c3nsc(NC(=O)c4cccs4)n3)c2C)c1 | nt | 23% | nt | nt | ? | 2.7% | 13% | nt
Cc1nc(-c2ccc(S(=O)(=O)N3CCN(C4c5ccccc5-c5ccccc54)CC3)s2)cs1 | 1% | -14% | 0% | -17% | 1% | nt | nt | ?
CN1CCN(S(=O)(=O)c2ccc(Cl)c(C(F)(F)F)c2)CC1 | nt | -24% | nt | 11% | 27%[46.1 µM] | nt | nt | 20%
Cc1ccccc1-c1nnc(CN2CCC(C)CC2)o1 | 0% | 28% | 4% | 6% | 25%[46.1 µM] | nt | nt | ?
Cc1ccc(S(=O)(=O)c2cc3ccc(O)cc3oc2=O)cc1C | -7% | 40%[activator] | 4% | -1% | nt | nt | nt | nt
Cc1cc2c(cc1C)-n1c(-c3ccccc3)c3c(=O)n(C)c(=O)n(C)c3c1C(c1ccco1)N2 (stereo not drawn) | nt | 4% | nt | nt | ? | -9.8% | ? | -9%[46.1 µM]
C/C(N)=C(/C#N)C(=O)COC(=O)CNS(=O)(=O)c1c(F)cccc1F | 2% | -2% | 3% | -7% | nt | nt | nt | nt
COc1ccccc1-c1cc(C(=O)Nc2ccccc2C(F)(F)F)no1 | nt | -3% | nt | nt | 9%[46.1 µM] | -1.8% | 4% | -7%[46.1 µM]
CC1CCN(C(=O)CS(=O)(=O)Cc2ccccc2)CC1 | 1% | 0% | 4% | -9% | ? | nt | nt | ?
COc1ccc(NC(=O)NCC(C)CSc2ccc(C)cc2)c(OC)c1 (stereo not drawn) | 0% | 40%[activator] | -2% | 5% | nt | nt | nt | nt
CCOc1ccc(NC(=O)CCCCn2c(=O)[nH]c3ccsc3c2=O)cc1 | -3% | 11% | nt | 0% | -3%[46.1 µM] | nt | nt | 9%[46.1 µM]
O=C(NCCCNC(=O)c1ccccc1F)c1ccco1 | 1% | 16% | 12% | 4% | 10% | nt | nt | 8%[46.1 µM]
COCCn1c(/C=C/c2ccccc2)nc2ccccc21 | -3% | 66%[activator] | -6% | -24% | ? | nt | nt | 10µM*
COc1ccccc1NC(=O)NS(=O)(=O)c1ccc(C)cc1 | -1% | -17% | 2% | 8% | -7% | -5.8% | -5% | 3%
O=C(CC(NC(=O)c1ccccc1Cl)c1ccccc1)NCCc1ccc(Cl)cc1 (stereo not drawn) | 26% | 5% | -4% | -2% | 5% | -0.6% | ? | 5%
CCN1CCN(c2ccc(S(=O)(=O)N3CCOCC3)cc2NC(=O)/C=C/c2cccc(OC)c2OC)CC1 | 3% | -23% | nt | -13% | 13%[46.1 µM] | nt | nt | -10%
Cc1ccc(S(=O)(=O)NC(=O)NN2CC3CCCC3C2)cc1 (stereo not drawn) | 1% | 13%&6%&-3% | 5% | 4% | 5%[46.1 µM] | 3.2%&8.4% | -4%&1% | ?
c1ccc(-c2ccc(C3=Nn4c(nnc4-c4cccs4)SC3)cc2)cc1 | -1% | -16% | 1% | 22% | -24% | nt | nt | -7%[46.1 µM]
O=C(NC(=S)Nc1nc2c(s1)CSc1ccccc1-2)c1ccccc1 | -46% | -6% | -101% | 1% | 9% | -4.6% | 7.9µM* | -16%
CCOc1cc2sc(N3CCC(C(=O)NCCCN4CCCC4=O)CC3)nc2cc1Br | 0% | -8% | 1% | 1% | nt | nt | nt | nt
O=c1cc(-c2ccc(F)cc2F)[nH]c2ccccc12 | 17% | nt | ? | nt | 1% | 0.6%&2.8% | 0%&2% | 5%&5%
CCOc1ccc(C(=O)N2CCN(Cc3ccccc3)CC2)cc1 | 4% | nt | 8% | 0% | -15% | -2.3% | 4% | 11%
CC(CCc1ccccc1)NC(=O)CN1CCSc2ccccc21 (stereo not drawn) | -5% | -9% | nt | 1% | -16% | nt | nt | -11%[46.1 µM]
Further compounds follow:
SMILES | SARS PLpro yeast | StopGo reporter | NS1 inh | RE007 growth inh | LASV entry inh | Cruzain Triton | Cruzain inh noDet | MARV entry inh
CCOc1ccc(Nc2c(S(=O)(=O)c3ccc(C)cc3)cnc3ccc(OC)cc23)cc1 | nt | ? | nt | nt | nt | -5.1% | -21% | ?
CCOC(=O)CN(C(=O)CNC(=O)c1cccs1)C(C(=O)NC1CCCC1)c1cccnc1 (stereo not drawn) | -10% | 7% | -2% | -1% | 6% | 4.3% | -3% | 8%
CCOC(=O)C1CCCN(C(=O)c2cc3c(=O)n(C)c4ccccc4c3n2C)C1 (stereo not drawn) | 5% | -9% | -19% | -5% | nt | 0.0% | -7% | -4%
COC(=O)c1ccccc1S(=O)(=O)N1CCC(C(=O)Nc2ccc(N3CCOCC3)cc2)CC1 | 0% | 1% | nt | -1% | -7% | nt | nt | 1%
COc1ccc(NS(=O)(=O)c2ccc3[nH]c4c(c3c2)CCCCCC4)cc1 | nt | 50%[activator] | nt | nt | ? | -8.8% | ? | nt
Fc1cccc(-n2cc(-c3ccccc3)c3c(=S)nc[nH]c32)c1 | ? | 0% | -5% | -2% | nt | nt | nt | nt
C=C1CCN([C@@H](C)C(=O)NCc2ccc(OC)cc2)S(=O)(=O)c2ccccc21 | -1% | -17% | 3% | -6% | nt | nt | nt | nt
COc1ccc(OC)c2sc(N3CCN(C(=O)CCS(=O)(=O)c4ccc(F)cc4)CC3)nc12 | nt | ? | nt | nt | -25%[46.1 µM] | -7.0% | ? | nt
O=C(/C=C/c1ccc(Cl)c(Cl)c1)N1CCc2ccccc21 | 17% | 43%[activator] | 2% | -5% | 3% | -2.8% | 5% | ?

Compounds were not picked by outcome. About 4.8% of those tested had a hit in this group.
